Screening results: PubChem BioAssay, Broad Institute
Calb FLC: C. albicans growth inhibition with fluconazole, primary screen, CaCi-2 strain, Alamar Blue fluorescence. growth inhibition, % (no concentration beside the values). C. albicans CaCi-2 (fluconazole-resistant clinical isolate) + fluconazole, 48 h. hit rate 0.57% among 300,000;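 active means most replicates above 75%; inconclusive means exactly half above 75%; inactive means most below 75%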;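 further: all wells also contain fluconazole at 8 µg/ml as a sub-toxic cotreatment; 0% = median of DMSO wells and 100% = median of geldanamycin control wells; wells of about 8 µL received 7.5 nL stock; the first replicate is given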
RanGTP-Imp inh: inhibitors of RanGTP-importin-beta interaction, primary screen, biochemical, FRET, CFP-Ran, YFP-importin-beta, homogeneous; AID 2216, 2009; hit rate 1.1% among 300,000; cell-free CFP-Ran/YFP-importin-beta FRET ratio; inhibition, % (test concentration not listed); Ran GTPase (GTP-bound) - importin-beta complex;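 active means most replicates above 15%; inconclusive means exactly half above 15%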;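 further: 0% = DMSO wells and 100% = Ran loaded with GDP instead of GTP; wells of about 40 µL received 100 nL stock; the first replicate is given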
Ecoli rRNA inh: reduced GFP signal of wild-type E. coli, primary screen, bacterial rRNA inhibitor project, GFP/RFP fluorescence, OD600, single point. E. coli WT GFP vs humanized-ribosome RFP mutants, 24 h; stronger effect = lower value; DMSO median 0, no signal -100. GFP signal change (wild-type ribosome), % (no concentration beside the values). hit rate 1.6% among 350,000. AID 720706, 2013;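 active means significant combined selectivity score with lowered wild-type GFP, culture density cut under 30%, mutant RFP and density less affected; inactive means any of these conditions unmet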; further: one replicate is shown; some compounds called inactive have numbers as strong as hits
FGF22 binding: binders of human FGF22 protein, primary screen, FGF22 synaptogenesis inhibitor project, biophysical, thermal shift, single point; Fibroblast growth factor 22 (Homo sapiens), Q9HCT0; recombinant FGF22 thermal shift, SYPRO orange fluorescence; percent of sucrose octasulfate shift, DMSO zero; calls only at 9.99 µM; hit rate 1.5% among 340,000; AID 651658, 2012;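 active means melting point raised past a set limit in the mean and every replicate; inconclusive means no clear call; three in four hits are not shown here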
Target sequence (Q9HCT0 whole entry, looked up): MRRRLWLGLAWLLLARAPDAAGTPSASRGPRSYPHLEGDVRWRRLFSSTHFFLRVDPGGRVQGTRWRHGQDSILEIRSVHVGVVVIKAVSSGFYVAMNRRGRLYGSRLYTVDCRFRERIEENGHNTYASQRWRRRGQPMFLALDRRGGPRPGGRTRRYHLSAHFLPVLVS
Beta cell apopt: inhibitors of cytokine-induced beta cell apoptosis, primary screen, luminescence; INS-1E cytokine-induced death, ATP luminescence, 48 h; percent of positive-control rescue, neutral wells zero; protection from apoptosis, % (no concentration beside the values); hit rate 0.8% among 300,000;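 active means all replicates at 75% or more, or half of them and the mean; inconclusive means half reach 75% but not the mean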;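 further: 0% = cytokine-treated negative control wells and 100% = positive control rescue; higher means more ATP so stronger rescue from cytokine killing; wells of about 40 µL received 100 nL stock; the first replicate is given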
T cruzi repl: inhibitors of intracellular T. cruzi growth, primary screen, luminescence, NIH3T3 host cells | T. cruzi beta-gal in NIH3T3, 90 h | inhibition, % (no concentration beside the values) | hit rate 1.4% among 300,000;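 active means mean inhibition across valid replicates above about 55%, limit read from the data; inconclusive means mean below that limit but half or more replicates reach it; inactive means mean below it, under half of replicates reach it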;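 further: signal also drops with host cell toxicity which is not excluded here; 0% = plate median of DMSO wells and 100% = zero luminescence signal; higher percent means less beta-gal luminescence so fewer parasites; stock transfer was 50 nL into about 50 µL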
ALR H2O2 inh: inhibitors of human ALR sulfhydryl oxidase, primary screen, biochemical, H2O2 detection, HRP-luminol luminescence, single point | FAD-linked sulfhydryl oxidase ALR (Homo sapiens), P55789 | hit rate 3.8% among 290,000 | purified ALR, DTT oxidation | inhibition, % (no concentration beside the values);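 active means mean and each replicate at 75% or more; inconclusive means only one of the two met; inactive means neither met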;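 further: stock transfer was 7.5 nL into about 7.5 µL; 0% = neutral wells and 100% = wells with inactivated enzyme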
Target sequence (P55789 whole entry, looked up): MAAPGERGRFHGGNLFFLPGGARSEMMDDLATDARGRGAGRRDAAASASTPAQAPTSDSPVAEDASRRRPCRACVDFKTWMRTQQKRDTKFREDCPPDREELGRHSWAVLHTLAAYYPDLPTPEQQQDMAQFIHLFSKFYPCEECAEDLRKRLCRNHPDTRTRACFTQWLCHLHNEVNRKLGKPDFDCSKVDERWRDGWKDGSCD
MLL AF4-AF9 inh: inhibitors of AF4 peptide binding to AF9, primary screen, biochemical, AlphaScreen, biotin-AF4 peptide, FLAG-AF9, single point | inhibition, % at 10 µM | AID 651704, 2012 | hit rate 0.47% among 350,000;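 active means every replicate reaching a set inhibition limit, whatever the replicate mean, cut at about 25% in these data; inconclusive means mean inhibition reaches that limit but some replicates miss it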;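 further: 0% = plate neutral control median and 100% = total signal loss; the record names both 10 and 1 µM as test concentration; the first replicate is given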
Target sequence (P42568 whole entry, looked up): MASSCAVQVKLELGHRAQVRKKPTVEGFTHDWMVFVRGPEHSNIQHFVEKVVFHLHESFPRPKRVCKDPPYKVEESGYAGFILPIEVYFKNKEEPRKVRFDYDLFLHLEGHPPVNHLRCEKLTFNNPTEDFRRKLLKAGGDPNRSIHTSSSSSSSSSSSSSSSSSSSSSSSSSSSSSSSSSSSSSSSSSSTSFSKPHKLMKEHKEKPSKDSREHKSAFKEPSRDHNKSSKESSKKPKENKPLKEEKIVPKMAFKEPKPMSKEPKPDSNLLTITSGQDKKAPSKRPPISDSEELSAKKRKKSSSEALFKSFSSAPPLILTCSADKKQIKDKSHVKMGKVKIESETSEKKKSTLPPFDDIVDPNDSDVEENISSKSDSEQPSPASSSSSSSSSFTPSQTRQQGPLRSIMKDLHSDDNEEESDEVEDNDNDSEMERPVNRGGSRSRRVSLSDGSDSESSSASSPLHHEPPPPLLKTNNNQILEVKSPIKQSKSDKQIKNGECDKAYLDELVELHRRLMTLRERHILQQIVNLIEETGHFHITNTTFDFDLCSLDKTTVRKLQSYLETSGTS
Ecoli rRNA inh OD600: recorded beside Ecoli rRNA inh, whose call it bears; OD600 change, %; measured here: OD600 growth;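 optical density of the mix in the first replicate; 0 = DMSO median and -100 = no signal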
Ecoli rRNA inh RFP: recorded beside Ecoli rRNA inh, whose call it bears; RFP signal change, %; measured here: RFP humanized mutant strains;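 first replicate; 0 = DMSO median and -100 = no signal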
* hit, by the source's call; i = inactive; ? = inconclusive; / = no result given. These rows are one share of the data. The share of hits here may be higher or lower than overall.

SMILES	Calb FLC	RanGTP-Imp inh	Ecoli rRNA inh	Ecoli rRNA inh OD600	Ecoli rRNA inh RFP	FGF22 binding	Beta cell apopt	T cruzi repl	ALR H2O2 inh	MLL AF4-AF9 inh
Cc1ccc(-c2ccc(SCC(=O)N3CCc4ccccc43)nn2)cc1	-15	-3.6	/	/	/	/	0	-11	/	/
CCN(N)C(=S)Nc1ccc(F)cc1	-1	-1.7	-6	-1	1.2	/	1	-3	10	1.4
O=C(NCC(c1ccco1)N1CCCCC1)c1cccnc1 (centres undefined)	/	/	7	10	-1.2	i	-13	/	-4	3.7
CCOCC(=O)Nc1c(C(=O)Nc2ccc3c(c2)OCCO3)oc2ccccc12	12	-0.3	-25*	-13*	-6.1*	i	-1	19	5	1.7
CN(C)CCCN(C(=O)COc1ccccc1)c1nc2cc3c(cc2s1)OCCO3	6	-4.7	10	-2	1.1	i	-3	4	68	8.3
CC(=O)Nc1ccc(C(=O)COC(=O)c2cccs2)c(F)c1	/	/	-6	-11	-1.3	i	-9	/	4	-2.7
CCN(CC(=O)NCc1ccc(Cl)cc1)C(=O)CSCC(=O)Nc1ccc(C)cc1	0	-1.9	-9	-22	2.9	i	0	-2	32	-0.6
CC1CC1C(=O)Nc1nc(-c2ccccc2)cs1 (centres undefined)	-21	-3.6	/	/	/	/	-5	16	62	/
COc1ccc(S(=O)(=O)N2CCCC2C(=O)Nc2nc3c(s2)CCCC3)cc1 (centres undefined)	-5	-1.2	/	/	/	/	5	0	-5	/
Cc1ccc(-c2nnn3c2nc(NC(C)C)c2ccccc23)cc1	-10	3.7	11	2	-13	i	4	44	-3	-3.1
COC(=O)c1ccc(/C=C/C(=O)OCC(=O)NCc2cccs2)cc1	/	/	16	8	3.2	i	-6	/	-4	-3.3
Cc1cccc(Oc2ncnc3onc(C)c23)c1C	-1	-3.8	/	/	/	/	-6	-8	-10	/
CNc1nc(SCc2ccccc2Cl)nc2c1CCCC2	24	1.6	/	/	/	/	5	14	-1	/
COCCn1c(-c2ccc(SC)cc2)nc2c1c(=O)[nH]c(=O)n2CC(C)C	6	-0.1	7	8	4.9	i	-5	14	-10	1.5
CCCCn1c(N)c(N(CCC(C)C)C(=O)CCCc2nc3ccccc3s2)c(=O)[nH]c1=O	2	0.2	5	4	-0.5	i	/	-3	-3	-1.6
COc1ccc(CCC(=O)NCc2cnn(C)c2)cc1	?	1.4	/	/	/	/	4	-8	-1	/
O=C(N/N=C1\CC2CC=CC12)c1ccccc1Cl (centres undefined)	-5	3.1	22	11	-0.1	i	-6	3	1	0.7
Cc1ccc(OCC(=O)N2CCc3ccccc3C2)c([N+](=O)[O-])n1	-9	0.0	10	-2	-7.0	i	-1	1	-3	0.0
Cc1noc(NS(=O)(=O)c2ccc(NC(=O)c3cccc(S(=O)(=O)Nc4ccccc4F)c3)cc2)c1C	/	/	0	-1	-1.1	/	-5	/	45	-4.6
Cc1ccc(-c2cc(C(=O)N/N=C/c3c(C)nn(C)c3C)c3ccccc3n2)cc1C	3	-0.4	/	/	/	/	19	50	0	/

An excerpt from above in order of length of the SMILES, largest number first.
SMILES	Calb FLC	RanGTP-Imp inh	Ecoli rRNA inh	Ecoli rRNA inh OD600	Ecoli rRNA inh RFP	FGF22 binding	Beta cell apopt	T cruzi repl	ALR H2O2 inh	MLL AF4-AF9 inh
Cc1noc(NS(=O)(=O)c2ccc(NC(=O)c3cccc(S(=O)(=O)Nc4ccccc4F)c3)cc2)c1C	/	/	0	-1	-1.1	/	-5	/	45	-4.6
COc1ccc(S(=O)(=O)N2CCCC2C(=O)Nc2nc3c(s2)CCCC3)cc1 (centres undefined)	-5	-1.2	/	/	/	/	5	0	-5	/
O=C(N/N=C1\CC2CC=CC12)c1ccccc1Cl (centres undefined)	-5	3.1	22	11	-0.1	i	-6	3	1	0.7
CNc1nc(SCc2ccccc2Cl)nc2c1CCCC2	24	1.6	/	/	/	/	5	14	-1	/

(list continues)
SMILES	Calb FLC	RanGTP-Imp inh	Ecoli rRNA inh	Ecoli rRNA inh OD600	Ecoli rRNA inh RFP	FGF22 binding	Beta cell apopt	T cruzi repl	ALR H2O2 inh	MLL AF4-AF9 inh
O=c1cc(-c2ccccc2Cl)oc2c([N+](=O)[O-])c(O)cc(O)c12	35	2.8	-43	-62	-21	i	9	15	57	1.6
O=C(Cc1nnc(NC(=O)c2cccc([N+](=O)[O-])c2)s1)NCc1ccccc1	-1	0.7	1	-3	-2.2	i	0	6	-4	0.9
Cc1nc(NC(=O)CN2CCC(O)(c3ccc(F)cc3)CC2)sc1C	1	8.3	9	11	-0.5	i	2	-14	2	3.5
CNC(=S)N1CCC(n2cnc3ccccc32)CC1	-51	4.6	11	6	1.9	i	-9	4	-1	-0.7
CC(C)(C)NC(=O)C(=O)NNC(=O)c1ccccc1	-1	-1.0	17	12	-3.6	/	-6	4	-1	/
O=C(c1cc2ccccc2o1)N1CCN(S(=O)(=O)c2ccc(Cl)s2)CC1	/	/	-14	-6	-1.0	i	3	/	-1	-2.8
CC(=O)c1ccc(N2CCN(CN3C(=O)CC4(CCCC4)C3=O)CC2)c(F)c1	-1	-1.7	7	7	-1.1	i	0	9	/	2.0
CCN(CC)C(=O)c1ncn(Cc2ccccc2)c1C(=O)N(CC)CC	/	/	6	15	18	i	-1	/	-3	-1.3
Cc1nc2c(O)cccc2cc1CO	10	-2.0	7	7	0.6	i	/	-1	-26	-0.6
Cc1ccc(CN2CCN(CC(=O)N/N=C/c3ccccc3F)CC2)cc1	-4	4.6	11	9	2.1	i	-1	19	-1	-1.4
Cc1cc(=O)c(C(=O)Nc2ccc(N3CCOCC3)cc2N2CCOCC2)nn1-c1ccccc1Cl	/	/	13	5	-1.8	i	-1	/	52	-0.8
COc1ccccc1NC(=O)CSc1nc(=O)n2cc(C)ccc2n1	3	-0.1	-2	-6	-2.8	i	-7	-2	-1	0.7
C=CCNC(=S)Nc1cccc2[nH]ncc12	20	-3.8	5	-2	9.0	i	0	-12	1	-1.4
Cc1ccc(NS(=O)(=O)c2c(C)[nH]c(C)c2C(=O)N2CCCCC2)cc1F	?	9.6	1	-10	2.4	i	-7	-8	0	-7.3
CN1C(=O)C(CC(N)=O)N(NC(=O)c2ccc(Cl)cc2)C1=S (centres undefined)	-2	-3.8	/	/	/	/	-9	-3	14	/
N#CCC(=O)Nc1ccc(C(=O)N2CCN(c3ccccn3)CC2)cc1	3	-0.1	-2	-1	1.1	i	/	2	27	2.4
Cc1cccc(N=Nc2c(C)nn(-c3ccccc3)c2N)c1C	3	3.6	11	14	-2.6	i	-7	14	3	21
O=C(NCc1ccccc1)C1CCC(CNS(=O)(=O)c2cccs2)CC1 (centres undefined)	5	5.4	16	7	3.0	i	-1	1	-1	-3.7
CCc1cccc(OCCOCCN2CCCC2)c1	/	-1.2	/	/	/	/	-8	43	-1	/
COc1cc(NC(=O)C2CSC3(C)CCC(=O)N23)c(OC)cc1Cl (centres undefined)	2	-1.7	7	-4	0.7	i	-7	2	0	-17
Cc1cc(/C=C(\C#N)c2nnc(N3CCOCC3)n2-c2ccccc2)c(C)n1-c1ccccc1	9	5.7	/	/	/	/	-4	-6	-2	/
C[C@H](CO)N1C[C@H](C)[C@@H](CN(C)S(=O)(=O)c2cccs2)Oc2c(NC(=O)CCC(F)(F)F)cccc2C1=O	/	/	17	19	4.8	i	1	/	-1	-2.9
Cc1nc2c(=O)n(-c3ccc(F)c(Cl)c3)nc(C)c2s1	-6	-2.6	0	9	-1.6	i	-8	3	-14	-2.1
C=CCOc1ccc(C(c2c(C)n(C)n(-c3ccccc3)c2=O)c2c(C)n(C)n(-c3ccccc3)c2=O)cc1	10	1.5	-2	2	1.6	i	4	14	-1	4.6
COc1ccc(-n2cnc3cc(NCc4cccs4)ccc32)cc1	11	19*	/	/	/	/	-3	19	95*	/
COc1ccc(CNC(=O)Cc2csc(NC(=O)Nc3ccccc3OC)n2)cc1	-2	1.3	-12	-24	-1.0	/	11	5	/	0.3
O=C(N/N=C/c1ccco1)c1ccc(NC(=O)C2CC2)cc1	-8	3.1	33	15	3.9	i	-3	-4	6	-2.1
CCC(=O)N1c2ccccc2NC2=C(C(=O)CCC2)C1c1ccccc1 (centres undefined)	-11	0.7	-3	0	2.2	i	0	23	/	-13
Nc1nc2n(n1)C(c1cccs1)CC(c1ccccc1)N2 (centres undefined)	3	-0.3	/	/	/	/	-2	11	3	/
Cc1n[nH]c(C)c1S(=O)(=O)N(CC(=O)N1CCc2ccccc21)c1ccc(C(C)C)cc1	1	4.3	5	8	1.9	i	/	22	10	1.6
COc1cccc(-c2nnc(SCC(N)=O)n2-c2ccc(Cl)cc2)c1	-10	1.8	12	0	1.6	i	-4	14	0	0.3
O=C(Nc1ccccc1)N1CCCN(c2ccc(C(F)(F)F)cc2[N+](=O)[O-])CC1	0	2.4	10	2	-1.8	i	/	2	1	-4.8
COc1cc(NS(=O)(=O)c2ccc(NC(=S)NC(=O)c3ccccc3)cc2)nc(OC)n1	3	?	-4	-17	-1.0	i	1	7	?	0.7
CC(C)OC(=O)CSc1nnc(-c2cccnc2)n1Cc1ccccc1	8	-4.9	2	8	-1.0	/	-5	-15	-6	/
Cc1cc(NC(=O)CC(F)(F)F)n(-c2ccccc2)n1	7	0.3	6	9	2.9	i	0	-1	39	-0.8
Cc1ccc(/C(O)=C2/C(=O)C(=O)N(c3ccccn3)C2c2ccc(F)cc2)cc1 (centres undefined)	-5	0.4	8	14	-0.1	i	-5	-8	8	0.2
CS(=O)(=O)Nc1cccc(C2=NN(C(=O)c3cccc(F)c3)C(c3cccs3)C2)c1 (centres undefined)	16	-1.2	-13	-34	26	i	6	4	-6	-3.3

In another format: four of the compounds above
Structure,Calb FLC,RanGTP-Imp inh,Ecoli rRNA inh,Ecoli rRNA inh OD600,Ecoli rRNA inh RFP,FGF22 binding,Beta cell apopt,T cruzi repl,ALR H2O2 inh,MLL AF4-AF9 inh
O=C(Nc1ccccc1)N1CCCN(c2ccc(C(F)(F)F)cc2[N+](=O)[O-])CC1,0,2.4,10,2,-1.8,i,/,2,1,-4.8
COc1cc(NS(=O)(=O)c2ccc(NC(=S)NC(=O)c3ccccc3)cc2)nc(OC)n1,3,?,-4,-17,-1.0,i,1,7,?,0.7
CC(C)OC(=O)CSc1nnc(-c2cccnc2)n1Cc1ccccc1,8,-4.9,2,8,-1.0,/,-5,-15,-6,/
Cc1cc(NC(=O)CC(F)(F)F)n(-c2ccccc2)n1,7,0.3,6,9,2.9,i,0,-1,39,-0.8
